BJeLR viability: kills HRASV12-expressing BJeLR cells. BJeLR (HRASV12) viability, CellTiter-Glo ATP luminescence, 48 h; reference of the scale not given here. inhibition, % (concentration not given with the values). actives 0.17% (n = 300,000). AID 1554;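 active means replicate mean above 50%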;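 further: 50 nL library stock added to about 25 µL; numbers are from one replicate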
Autofluor counter: flagged as autofluorescent in microsphere protease counterscreen; compound autofluorescence counterscreen, microsphere flow cytometry; hits give high values; AID 624483; fluorescence intensity (concentration not given with the values); actives 3.1% (n = 360,000);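 active means at least 3 SD above the mean of all compounds, about 16000 in these data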;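 further: 100 nL of 1 mM stock went into each well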
PrP 5UTR inh: inhibition of PrP 5' UTR reporter expression; cell-based PrP 5' UTR mRNA reporter, plate reader; inhibition, % (test concentration not listed); actives 0.35% (n = 340,000);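 active means every replicate at 50% or more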;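 further: 0 = median of the neutral control wells; tested in H4 reporter cells; numbers are from one replicate; inactives centre near -14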
Mtb hypoxia inh: Mtb hypoxia fluorescent reporter inhibition; actives 0.1% (n = 300,000); fluorescence inhibition, % (no concentration beside the values); M. tuberculosis hypoxia-regulated fluorescent reporter, fluorescence;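 active means 35 to 45% if threefold the growth effect, above 45% if 1.5-fold the growth effect; inactive means the rest, general growth blockers included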;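 further: wells of about 50 µL received 100 nL stock; 0% = vehicle wells and 100% = reference inhibitor wells; whole bacteria with a GFP reporter of the hypoxia response; strong numbers were not always called active; many hits fall short of the cut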
Sa RN4220 lethal: S. aureus RN4220 growth inhibition | inhibition, % (no concentration beside the values) | OD600, 16 h | actives 0.33% (n = 330,000);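 active means z-score of -3 or lower and OD600 up to 0.18 on both plates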;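 further: plate controls were untreated cells for no effect and reference antibiotic for full effect; stock transfer was 100 nL into about 80 µL; one replicate is shown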
Sa ugtP lethal: compounds lethal to S. aureus RN4220 ugtP deletion mutant. OD600 growth, 16 h; some inactives read as strong as hits. growth inhibition, % (no concentration beside the values). actives 0.54% (n = 330,000);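 active means z-score under -3 and OD600 up to 0.15 on both plates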;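 further: plate controls were untreated wells for no effect and antibiotic for full effect; wells of about 80 µL received 100 nL stock; the first replicate is given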
Mtb hypoxia inh growth: further read-out of Mtb hypoxia inh, marked with its call; growth inhibition, %; measured here: M. tuberculosis growth (absorbance);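 0% = vehicle and 100% = reference antibiotic; read after six days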
* hit, by the source's call; / = not tested or not shown. Hits appear at their usual frequency. About 4% of those tested had a hit in this group.

Values run as follows: Mtb hypoxia inh | BJeLR viability | Mtb hypoxia inh growth | PrP 5UTR inh | Sa RN4220 lethal | Sa ugtP lethal | Autofluor counter
CCCCCCOc1ccc(N2C(=O)CC(S/C(N)=N/N=C(C)c3cccs3)C2=O)cc1 (centres undefined)
→ 9.5 | / | 3.3 | / | 5.8 | -9.9 | /
COc1cc(/C=C2/CC/C(=C/c3ccc(O)c(OC)c3)C2=O)ccc1O
→ 16.6 | 20.6 | 6.2 | -27.4 | 18.0 | 19.4 | 3855
CCOc1cccc(-c2cc(C(=O)NN)[nH]n2)c1
→ 6.9 | 2.5 | 5.9 | -27.2 | 0.9 | 0.9 | 4338
Cc1cc(C(=O)NC2CCCCC2)c2cc(F)ccc2n1
→ 9.2 | -11.2 | 9.0 | -20.6 | 2.9 | 4.7 | 3428
CCOc1ccc(C(=O)NC2CCCCCCC2)cc1
→ / | -7.6 | / | -101.8 | 6.1 | -4.5 | 5903
O=C(O)COc1ccccc1C(Nc1cccnc1)c1cc(Cl)c2cccnc2c1O (centres undefined)
→ 18.5 | 6.5 | -0.3 | -16.1 | 9.5 | 8.2 | 4383
CC1CN(C(=O)COC(=O)/C=C/c2cccc([N+](=O)[O-])c2)CC(C)O1 (centres undefined)
→ 4.9 | / | 10.7 | -11.8 | -0.8 | 5.4 | 7742
COc1ccc(C(=O)N2CCCC(Nc3ccc(C)c(C)c3)C2)c(OC)n1 (centres undefined)
→ 12.3 | 2.5 | 6.4 | -10.4 | 0.0 | -2.5 | 6036
Cc1ccccc1Cn1cc(NC(=O)c2cc(-c3cccs3)on2)cn1
→ 2.4 | -1.6 | 6.4 | -7.1 | -2.1 | 0.6 | 12032
Cc1nc(NC(=O)c2cncc(Br)c2)ccc1Br
→ 4.1 | 2.6 | -3.0 | -30.4 | 2.0 | 5.8 | 3684
CN(C)C(CNC(=O)C1CCN(S(=O)(=O)c2ccccc2C(F)(F)F)CC1)Cc1ccccc1 (centres undefined)
→ 7.3 | / | 7.4 | -6.9 | 0.8 | 4.8 | 4927
O=Cc1ccc(Oc2cccc(C(F)(F)F)c2)nc1
→ 5.1 | -1.8 | -1.0 | -20.6 | 3.9 | 13.7 | 4542
CC(Oc1ccc(C(C)(C)C)cc1)C(=O)NCC(c1ccco1)N1CCCC1 (centres undefined)
→ 2.6 | / | 1.1 | -14.9 | 7.6 | 15.1 | 6984
C/C(C=NNc1nncc(=O)[nH]1)=C\c1ccccc1
→ -0.9 | / | 1.0 | / | -1.2 | 4.8 | /
COc1ccc(OC)c(NC(=O)CCCNC(=O)Cn2cnc3sc(C)c(C)c3c2=O)c1
→ -7.6 | -0.5 | -6.5 | -12.6 | 3.3 | 5.5 | 5561
CCC(C(=O)NC1CCCC1)N(Cc1ccco1)C(=O)Cn1nnc(-c2ccc(C)cc2)n1 (centres undefined)
→ 6.5 | 0.0 | 6.0 | -5.5 | -3.5 | -7.3 | 19503*
CCN(C[C@H]1N[C@@](CC)(C(=O)OC)[C@H]2C(=O)N(C)C(=O)[C@@H]12)S(=O)(=O)c1ccc(OC)cc1
→ -0.5 | / | 5.7 | -0.3 | 1.5 | 2.2 | 3579
CCOC(=O)/C=C/C(=O)OCC(=O)Nc1cccc(Cl)c1Cl
→ 12.7 | 3.6 | 4.6 | 45.1 | 0.3 | 4.2 | 3382
C(=N\Nc1ccc2ccccc2n1)/c1ccc2c(c1)OCCO2
→ / | 13.3 | / | 83.4* | / | / | 4695
O=S(=O)(Nc1ccccn1)c1ccc(Br)cc1
→ / | -3.5 | / | -19.2 | / | / | 3760
O=C(Cn1cccc1C(=O)c1ccccc1)NCc1ccco1
→ 9.2 | 1.5 | -1.8 | -16.7 | 6.0 | -3.7 | 2997
COCCOC(=O)C(C#N)c1nc2ccccc2nc1N1CCCC1 (centres undefined)
→ / | -9.6 | / | -11.1 | 3.8 | 3.9 | 2594
Cc1ccc(C(=O)O)cc1NS(=O)(=O)c1ccc2c(c1)oc(=O)n2C
→ 7.2 | 8.2 | 9.4 | -15.3 | 1.5 | 3.5 | 3964
COC(=O)C1CC2CCC(O)CC2N1Cc1ccc(N2CCN(C)CC2)cc1 (centres undefined)
→ -0.4 | / | 2.6 | / | 7.4 | 1.8 | /
COc1cccc(NC(=O)COc2cc(C)cc3oc(=O)cc(C)c23)c1
→ 11.7 | 6.5 | -0.8 | 9.5 | -0.6 | 2.0 | 5999
Cc1ccc(SC(CC(=O)c2ccc(F)cc2)C(=O)O)cc1 (centres undefined)
→ 10.5 | -8.4 | 3.2 | -16.3 | 2.0 | 2.1 | 3337
CCOc1ccc(Br)cc1C(=S)N1CCCC1
→ 3.4 | -0.9 | 6.5 | -6.8 | 3.2 | 4.7 | 3430
CCOc1ccc(OCC(O)CNC2CCN(Cc3ccccc3)CC2)cc1 (centres undefined)
→ 17.8 | 7.0 | 10.1 | -8.2 | -0.3 | -3.0 | 1950
Cc1noc(C)c1COc1cccc(C(=O)NCc2ccccc2Cl)c1
→ 4.3 | 2.0 | 4.2 | -19.6 | 4.7 | 14.1 | 3595
COc1cccc(C(=O)OCC(=O)NCCc2ccccc2)c1OC
→ -0.8 | -7.4 | -9.2 | -3.9 | 3.0 | 1.6 | 3644
O=C(Nc1cccc(-n2cccn2)c1)C1CCCN(Cc2ccc(C#CCCO)cc2)C1 (centres undefined)
→ 6.7 | -8.9 | 8.9 | -15.4 | 2.6 | 3.8 | 6492
CCOC(=O)CCCNC(=O)CCNC(=O)c1ccc(OCC)cc1
→ 0.3 | -8.1 | 9.3 | 3.2 | 4.5 | -0.3 | 9347
CCCNC(=S)N1CCC(NC(=O)c2cccc(C)c2)CC1
→ 11.4 | 0.9 | -3.9 | -3.5 | 3.8 | 6.7 | /
CC1C(=NO)C(C)C(c2ccc(N(C)C)cc2)NC1c1ccc(N(C)C)cc1 (centres undefined)
→ 1.4 | -10.7 | 9.3 | -48.1 | 5.2 | -5.0 | 6594
COc1ccccc1CNC(=O)C1CCCN(S(=O)(=O)c2ccc3c(c2)CC(C)N3C(C)=O)C1 (centres undefined)
→ -7.7 | 7.2 | -12.5 | -21.5 | -0.8 | 0.6 | /
N#CC1=C2N=C(N)c3ccccc3N2C2=C(C(=O)CCC2)C1c1ccc(Cl)cc1 (centres undefined)
→ / | 11.5 | / | 12.8 | 3.8 | 20.5 | 4574
CC(=O)C1CCC2C3CCC4=CC(=O)CCC4(C)C3(F)C(O)CC12C (centres undefined)
→ -1.9 | / | 9.8 | -30.1 | 7.5 | 6.0 | 3790
CC1(C)CC(=O)C/C(=N\NC(=S)NCc2ccccc2)C1
→ / | -5.1 | / | -27.4 | / | / | 4087
COc1ccc(OCC(=O)NCC(c2ccc(OC)cc2)N2CCCCC2)cc1 (centres undefined)
→ 11.4 | 1.0 | 8.0 | -15.8 | 2.9 | 16.4 | 6235
CC(NC(=O)c1ccccc1Cl)C(=O)NCc1cccs1 (centres undefined)
→ / | / | / | -23.7 | 4.1 | 4.4 | 7093
COC(=O)C(CC(=O)O)NCc1ccco1 (centres undefined)
→ -1.5 | 9.6 | -4.5 | / | 5.4 | 6.8 | 3864
Cc1cccc(NC(=O)c2sc3ncn(CC(=O)N4CCN(c5ccccn5)CC4)c(=O)c3c2C)c1
→ -8.0 | -6.9 | -4.1 | -6.4 | -1.2 | -1.0 | 5502
CCCCn1c(N)c(N(CCC(C)C)C(=O)c2cc(Cl)nc3ccccc23)c(=O)[nH]c1=O
→ 4.2 | / | -2.7 | 6.6 | -4.7 | -7.5 | 2887
Cn1c(N)c(C(=O)COC(=O)c2cc(C(F)(F)F)nc3ccccc23)c(=O)n(C)c1=O
→ -1.8 | 6.5 | 1.7 | / | 6.0 | 0.4 | /
Cc1ccc(Cl)cc1N1CCN(S(=O)(=O)c2ccc3c(c2)oc(=O)n3C)CC1
→ -1.8 | 0.1 | 2.5 | -16.5 | -1.6 | -7.4 | 10378
Cc1ccc2nc(Cl)c(/C=C/C(=O)c3ccco3)cc2c1
→ -3.1 | 8.9 | 2.1 | -50.4 | -1.9 | -2.0 | 6767
CCC(=O)Nc1cc(C(F)(F)F)ccc1N1CCCC1
→ -0.5 | -4.9 | -2.0 | -25.7 | 4.2 | 10.1 | 4254
COc1ccc2c(=O)cc(-c3ccccc3F)oc2c1
→ -2.1 | -3.5 | 2.6 | -41.3 | 8.8 | -8.8 | 3780
COc1ccc(-n2cc(-c3ccccc3)c3c(=O)[nH]cnc32)cc1
→ 12.6 | -27.4 | 6.5 | -13.0 | 7.7 | -0.1 | 6770
Cc1cc(C)nc(/N=C(\N)Nc2ccccc2-c2ccccc2)n1
→ / | 2.5 | / | -12.3 | / | / | 4834

Continued:
Values run as follows: Mtb hypoxia inh | BJeLR viability | Mtb hypoxia inh growth | PrP 5UTR inh | Sa RN4220 lethal | Sa ugtP lethal | Autofluor counter
O=C(CC(c1ccccc1)c1ccccc1O)NCc1ccccc1 (centres undefined)
→ -2.1 | -3.8 | -1.5 | -31.1 | 0.5 | 5.0 | 4452
CCOc1ncnc2c1sc1nc(C)cc(C)c12
→ 23.4 | -1.3 | 7.0 | -14.7 | 6.8 | 6.1 | 4168
CCCCn1c(N)c(N(CC(C)C)C(=O)C2=NN(c3ccccc3)C(=O)CC2)c(=O)[nH]c1=O
→ 3.2 | / | 5.3 | -40.3 | 3.9 | 9.4 | 3903
CC(=O)N1CCN(S(=O)(=O)c2cccc(C(=O)NC3CCCc4ccccc43)c2)CC1 (centres undefined)
→ 8.0 | 1.8 | 4.3 | -22.6 | 9.8 | 1.6 | 3058
C[C@@H]1C(=O)N(c2ccccc2)[C@@H]1c1ccncc1
→ 1.5 | / | 11.2 | -10.0 | 1.3 | 2.3 | 3787
COc1cc(C(=O)Nc2ccc(S(=O)(=O)N3CCCCC3)cc2)ccc1OCC(=O)N1CCOCC1
→ 8.0 | / | 5.8 | -13.1 | -1.2 | 4.2 | 3489
N#Cc1c(N)nc2c(c1-c1cccnc1)CCCCC2
→ 6.0 | 13.0 | 16.7 | -11.0 | 4.2 | 4.0 | 21866*
O=C1CN(C(=O)COC(=O)[C@@H]2CCCN2S(=O)(=O)c2ccc(Cl)cc2)c2ccccc2N1
→ 2.5 | / | 4.3 | -19.2 | 2.3 | 8.1 | 2941
Cc1ccc(S(C)(=O)=NC(=O)c2cc(C)on2)cc1 (centres undefined)
→ -4.9 | -4.5 | -0.3 | -9.8 | 1.8 | -0.9 | 6177
CCCCn1c(=O)c(C(=O)NCCc2ccccc2)c(O)c2ccccc21
→ -6.2 | -14.4 | 12.9 | -9.9 | -2.9 | 22.7 | 4216
O=C(O)C1CC(=O)N(c2ccc(F)cc2)C1 (centres undefined)
→ 13.7 | -17.7 | 3.2 | -26.5 | 3.4 | -0.1 | 8188
O=C(COC(=O)Cc1ccsc1)Nc1ccc(Cl)c(S(=O)(=O)N2CCOCC2)c1
→ 5.8 | 15.2 | -5.3 | -11.2 | 1.5 | -0.8 | 2539
CCOc1ccc(-n2c(C)cc(C(=O)NS(=O)(=O)c3ccc(C)cc3)c2C)cc1
→ 1.1 | -1.2 | 0.3 | -6.9 | 1.7 | 92.2* | 2537
COc1ccc2nc(NC(=O)C3CCCN3S(=O)(=O)c3ccc(C)cc3)sc2c1 (centres undefined)
→ / | -7.8 | / | 0.3 | -4.5 | 8.8 | 2680
CCC(=O)OCC(=O)Nc1cc([N+](=O)[O-])ccc1Cl
→ 14.1 | 5.8 | 2.9 | -23.3 | 1.7 | 7.0 | 5556
CN(C(=O)CSc1nc2ccccc2n1C)C1CCS(=O)(=O)C1 (centres undefined)
→ 3.7 | / | 4.8 | -14.4 | 6.4 | 5.0 | 8125
CCCCNC(=O)c1ccc(CS(=O)(=O)c2ccccc2OC)o1
→ 2.2 | 7.2 | 12.8 | -14.8 | -0.7 | 7.7 | 3117

Profiles, looked up by structure. Screens in order: Mtb hypoxia inh	BJeLR viability	Mtb hypoxia inh growth	PrP 5UTR inh	Sa RN4220 lethal	Sa ugtP lethal	Autofluor counter
Cc1cccc(NC(=O)c2sc3ncn(CC(=O)N4CCN(c5ccccn5)CC4)c(=O)c3c2C)c1 reads -8.0	-6.9	-4.1	-6.4	-1.2	-1.0	5502
C/C(C=NNc1nncc(=O)[nH]1)=C\c1ccccc1 reads -0.9	/	1.0	/	-1.2	4.8	/
CCOC(=O)CCCNC(=O)CCNC(=O)c1ccc(OCC)cc1 reads 0.3	-8.1	9.3	3.2	4.5	-0.3	9347

Screening data from PubChem BioAssay.
